Menin MLL FP FL = qHTS Assay for Inhibitors Targeting the Menin-MLL Interaction in MLL Related Leukemias: Competition With Fluorescein Labeled MLL-derived Peptide; FP activity change, % at 61.4 µM; AID 1766, 2009; 290,000 tested, under 10 active; Fluorescence polarization, fluorescein-MLL peptide displacement from menin; inconclusive = falling polarisation curve, or a change in total fluorescence; inactive = total fluorescence flat and polarisation flat or rising; no compound was filed as active; the % refers to the polarisation; negative = inhibition;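 further: % of control where 0% means no effect; inhibitors lower the polarisation; unlabelled MLL peptide was the positive control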
gsp antagonist = qHTS for Antagonists of gsp, the Etiologic Mutation Responsible for Fibrous Dysplasia/McCune-Albright Syndrome: qHTS | gsp-mutant cells, cAMP HTRF, 30 min; control for the full effect not named in the record | Potency, µM (top dose mostly 76.9 µM), for the others: at the highest dose activity change, negative = inhibition, actives largely listed as inhibitors | 340,000 compounds, 0.4% hits | AID 624288, 2012; active = falling curve of any shape with a large fitted effect; inconclusive = falling curve, mostly with a smaller effect; inactive = flat or rising curve; cell line not stated here;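 further: intracellular cAMP measured with PDE inhibitor Ro 20-1724 present during compound exposure; potency means the concentration at half of the fitted maximal effect; on the % scale 0 is the no-effect control and ±100 the full control effect; nearly all actives have a fitted effect of over 65% in size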
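Cells, 2000/well, grown 16–24 h in DMEM 10% FBS with 0.5 mg/ml G418, then compounds plus […] (300 uM addition stock), 30 min at 37C. cAMP read by HTRF (cAMP-d2 and anti-cAMP antibody-K in lysis buffer) after 30 min RT.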
TRPML1 inh = qHTS for Inhibitors of the Human Mucolipin Transient Receptor Potential 1 (TRPML1) | Mucolipin-1 (Homo sapiens), Q9GZU1 | TRPML1-inducible cells, Ca2+ dye fluorescence, FDSS; hits give low values; inhibition of EC80 agonist-evoked calcium signal | activity change, negative = inhibition, % (test concentration not listed) | 390,000 compounds, 0.02% hits; in the data active means activity change below about -50%; inconclusive means about -30% to -50%; inactive means above about -30%;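 further: stimulus is agonist 54-4 at its EC80 concentration; on the % scale 0 is the no-effect control and ±100 the full control effect; compound concentration not given in the record; the text of the record puts the active cut at -80%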
Target sequence (Q9GZU1 whole entry, looked up): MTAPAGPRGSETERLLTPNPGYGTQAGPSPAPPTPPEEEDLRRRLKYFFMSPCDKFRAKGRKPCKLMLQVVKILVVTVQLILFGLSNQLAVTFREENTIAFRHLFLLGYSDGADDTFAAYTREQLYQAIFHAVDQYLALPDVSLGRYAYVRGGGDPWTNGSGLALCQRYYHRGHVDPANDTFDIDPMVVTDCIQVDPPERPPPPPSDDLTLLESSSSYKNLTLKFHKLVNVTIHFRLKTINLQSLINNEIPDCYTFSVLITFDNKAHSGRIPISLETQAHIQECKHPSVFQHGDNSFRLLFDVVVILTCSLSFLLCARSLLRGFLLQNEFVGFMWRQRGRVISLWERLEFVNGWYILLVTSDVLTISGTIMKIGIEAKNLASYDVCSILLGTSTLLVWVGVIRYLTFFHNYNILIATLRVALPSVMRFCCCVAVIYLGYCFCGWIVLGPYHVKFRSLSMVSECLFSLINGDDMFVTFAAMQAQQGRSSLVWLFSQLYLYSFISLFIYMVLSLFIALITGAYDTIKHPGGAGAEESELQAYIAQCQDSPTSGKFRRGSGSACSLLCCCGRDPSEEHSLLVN
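Tet-induced TRPML1-DL cells loaded with Ca8 no-wash calcium dye were read kinetically on FDSS. Compound addition was followed by EC80 agonist 54-4 (4 uM final); inhibition was read over 110 s.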
ClpP mod = qHTS Assay for Activators of ClpP; ATP-dependent Clp protease proteolytic subunit (Bacillus subtilis (strain 168)), P80244; purified B. subtilis ClpP, FRET peptide cleavage, 20 min; Potency, µM (series often up to 57.5 µM), without a hit: top-dose activity change, negative = active; 340,000 compounds, 1.9% hits; AID 651965, 2013; active = well fitted falling curve with a large enough effect; inconclusive = small, poorly fitted or top-dose-only effect; inactive = no such curve, though single readings can be large or run the other way; further: potency means the concentration at half of the fitted maximal effect; the source files actives as falling curves though it sought activators and does not explain the sign; nearly all actives have a fitted effect of over 65% in size; many hits overshoot -100%
Target sequence (P80244 whole entry, looked up): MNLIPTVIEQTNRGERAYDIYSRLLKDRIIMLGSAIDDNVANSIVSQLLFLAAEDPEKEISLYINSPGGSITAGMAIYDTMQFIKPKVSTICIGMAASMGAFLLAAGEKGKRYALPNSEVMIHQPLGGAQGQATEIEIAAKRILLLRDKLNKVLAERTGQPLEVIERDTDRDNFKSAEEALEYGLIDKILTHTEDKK
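Purified B. subtilis ClpP, 10 microg/mL final in Tris/HCl pH8 with KCl, BSA, glycerol and Tween-20, cleaved an Abz/nitrotyrosine-quenched decapeptide. Fluorescence (ex 320, em 430) was read at 0 and 20 min at room temperature. Delta was normalized to 5.8 microM ADEP and DMSO/no-enzyme controls.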
TRPML1 agonist = qHTS for Agonists of the Human Mucolipin Transient Receptor Potential 1 (TRPML1); Mucolipin-1 (Homo sapiens), Q9GZU1; TRPML1-expressing cells, Ca2+ dye fluorescence, FDSS; host cell line not named in the record; reference of the full effect not given here; activation, % (test concentration not listed); 410,000 compounds, 0.12% hits; AID 624414, 2012; in the data active = activation above about 50%; inconclusive = about 30% to 50%; inactive = below about 30%; further: 0% is about no effect; the text of the record puts the active cut at 80%
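Calcium fluorescence on an FDSS kinetic reader gave the read-out. Tet-induced TRPML1-DL cells were plated overnight, dye-loaded (Ca8 with quencher, 45-90 min, room temperature, dark), then read 110 s after compound addition, and again 110 s after 4uM final 54-4 (EC80).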
gsp ag = qHTS for Agonist of gsp, the Etiologic Mutation Responsible for Fibrous Dysplasia/McCune-Albright Syndrome: qHTS | gsp mutant cells, cAMP HTRF, 30 min; control for the full effect not named in the record | Potency, µM (highest dose often 76.9 µM), inactives show top-dose activation (cAMP increase), most hits filed as activators | 340,000 compounds, 0.13% hits; active = well fitted activation curve with a large enough effect; inconclusive = small, poorly fitted or top-dose-only effect, or another doubt; inactive = no such curve, though single readings can be large or run the other way; cell line not stated here;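 further: phosphodiesterase inhibitor Ro 20-1724 added with compounds to block cAMP breakdown; potency means the concentration at half of the fitted maximal effect; nearly all actives have a fitted effect of over 60% in size; about a fifth of the inactives were tested at one dose only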
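Cells stably selected in G418 were plated at 2000/well, grown 16-24 hr, then given compounds in DMSO with the PDE inhibitor […] (300 uM solution added) for 30 min at 37C; cAMP was read by HTRF.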
* hit, by the source's call; ? = inconclusive; / = not tested or not shown; & = joins results of further samples; [ ] = dose if it differs, or a comment. An unsorted share of the library. About 2.1% of those tested had a hit in this group.

SMILES	Menin MLL FP FL	gsp antagonist	TRPML1 inh	ClpP mod	TRPML1 agonist	gsp ag
O=C(Nc1cccc(O)c1)c1cnn2cccnc12	-3.4	0.2%	-6.8	-2.5%	0.9	?
Cn1c(/C=C/c2cccc(Br)c2)nc2ccccc2c1=O	7.4	-21.6%	12.7	/	5.6	-12.4%
CCN(CC)CCSc1nnc2c3cc(C)ccc3n(Cc3ccccc3)c2n1	4.7	-3.8%	-4.2	/	0.4	6.8%[15.4 µM]
CC(=O)N1CCN(C(=O)C(=O)Nc2c3c(nn2-c2ccc(Cl)cc2)CSC3)CC1	/	/	-1.7	-1.2%	-0.7	/
CCn1c(COc2ccccc2)nnc1SCC(=O)NCc1ccco1	-1.3	-3.5%	-5.5	/	0.7	8.0%
CC(=O)N(C)c1ccc(NC(=O)C(F)(F)F)cc1	-1.8	0.3%	-9.2	-1.2%	0.7	-12.3%
CCOC(=O)C1=C(N)Oc2cc(O)ccc2C1c1cccc([N+](=O)[O-])c1 (configuration not stated)	0.1	-2.6%	-1.0	/	0.7	-2.4%[15.4 µM]
CCOC(=O)c1cn(CC)c2cc(F)c(F)cc2c1=O	0.6	-6.1%	4.6	-1.7%	0.3	5.9%[15.4 µM]
O=C(Nc1ccc(OC(F)(F)F)cc1)NC1CCC(Oc2ccc(C(=O)O)cc2)CC1 (configuration not stated)	/	-15.9%	-1.8	-1.2%	-0.7	/
COc1ccc(OC)c(NC(=O)CSc2nnc(NC(=O)c3ccco3)s2)c1	/	-10.6%	-14.6	-2.8%	0.8	-2.0%
CCOC(=O)c1nn(-c2ccc3c(c2)OCCO3)cc1O	0.9	-4.5%	-10.2	/	-0.6	20.2%[15.4 µM]
CCCCn1c(=N)c(S(=O)(=O)c2ccc(Br)cc2)cc2c(=O)n3cccc(C)c3nc21	?	8.4%	-11.2	-2.3%	-0.4	29.0%
Cc1ccc(N2CC(C(=O)OCC(=O)c3ccc(F)cc3)CC2=O)cc1 (configuration not stated)	2.7	10.8%	-13.9	/	0.5	26.3%
COc1cc(C(=O)N(Cc2ccccc2)c2cccc(C)c2)ccc1OCC(=O)N1CCOCC1	/	/	1.4	0.4%	-0.8	-93.9%[inhibitor]
CCOC(=O)c1c(C)n(C)c2c(C)cc(O)c(OC(=O)CC)c12	2.5	2.2%	39.2	-3.3%	-0.2	-9.4%
C=C(C)CSc1nnc(-c2ccc(OC)c(OC)c2)n1N	2.7	8.6%	-4.2	-2.1%	0.6	9.7%
CCOC(=O)N1CCN(C(=O)CN(c2ccccc2F)S(=O)(=O)c2ccc(C)cc2)CC1	/	/	-6.6	0.1%	0.0	/
Cc1cccc(C)c1OCC(O)Cn1nnc2ccccc21 (configuration not stated)	-1.3	0.4%	-6.2	0.7%	0.4	7.5%
CCOc1ccc(S(=O)(=O)N2CCCCC2)cc1NC(=O)CN1C(=O)NC(C)(C2CC2)C1=O (configuration not stated)	/	-4.5%	1.3	1.6%	0.6	-5.0%[15.4 µM]
Cn1cc(/C=C(\NC(=O)c2ccccc2)C(=O)NCCCN2CCOCC2)c2ccccc21	/	9.0%	20.5	-0.8%	0.1	-26.6%
NNC(=O)c1ccc(COc2ccc3ccccc3c2)o1	0.2	1.7%	-23.1	-4.5%	0.4	6.1%
CC[C@H](C)[C@@H](C(=O)NCCCCCCCCCCC(=O)N1CCN(C(=O)OC(C)(C)C)CC1)n1cc(CCCCCNC(=O)OC(C)(C)C)nn1	/	?	19.7	0.2%	1.0	/
CCCc1nc2cc3c(cc2[nH]1)n(C)c(=O)n3C	-1.9	9.5%	-20.2	?	-1.7	-3.6%[15.4 µM]
CC(NC(=O)Cn1cc(C(F)(F)F)ccc1=O)c1ccc(F)cc1 (configuration not stated)	0.1	6.5%	10.1	-4.0%	-0.5	6.4%[15.4 µM]
COc1ccc(CNC(=O)C(C)N(Cc2ccccc2OC)C(=O)c2snc(C(N)=O)c2N)cc1 (configuration not stated)	/	-20.0%	-14.5	/	-0.7	-6.3%[15.4 µM]

Exported in CSV form: part of the list above.
canonical_smiles,Menin MLL FP FL,gsp antagonist,TRPML1 inh,ClpP mod,TRPML1 agonist,gsp ag
CCN(CC)CCSc1nnc2c3cc(C)ccc3n(Cc3ccccc3)c2n1,4.7,-3.8%,-4.2,/,0.4,6.8%[15.4 µM]
CC(=O)N1CCN(C(=O)C(=O)Nc2c3c(nn2-c2ccc(Cl)cc2)CSC3)CC1,/,/,-1.7,-1.2%,-0.7,/
CCn1c(COc2ccccc2)nnc1SCC(=O)NCc1ccco1,-1.3,-3.5%,-5.5,/,0.7,8.0%
CC(=O)N(C)c1ccc(NC(=O)C(F)(F)F)cc1,-1.8,0.3%,-9.2,-1.2%,0.7,-12.3%
CCOC(=O)C1=C(N)Oc2cc(O)ccc2C1c1cccc([N+](=O)[O-])c1 (configuration not stated),0.1,-2.6%,-1.0,/,0.7,-2.4%[15.4 µM]

Continued:
SMILES	Menin MLL FP FL	gsp antagonist	TRPML1 inh	ClpP mod	TRPML1 agonist	gsp ag
CNc1nc(OCCNC(=O)Nc2ccccc2)nc(N2CCOCC2)n1	3.2	5.6%	-13.1	-0.9%	-0.3	21.6%
Cn1c(C(=O)NCCN2CCOCC2)cc2c(=O)n3ccccc3nc21	/	16.2%	-6.3	4.6%	0.2	?
CN1CCN(C(=O)c2cc(-c3ccccc3)on2)CC1	-7.7	12.5%	-23.0	-1.0%	1.1	-60.8%[inhibitor]
Cn1ncc2c(Nc3ccc(O)cc3)nc(Cl)nc21	-9.9	-0.6%	-3.1	/	0.1	0.1%[15.4 µM]
COc1ccc(OCC(=O)N/N=C(\C)c2cc3ccccc3o2)cc1	4.4	-27.9%	31.9	52.0%	3.3	-64.3%[inhibitor]
CCc1ccccc1-n1c(SCC(=O)c2c(N)n(C3CC3)c(=O)[nH]c2=O)nnc1N1CCOCC1	/	7.6%	2.6	0.2%	0.0	-28.3%
Cc1ccc(NS(=O)(=O)c2ccc3c(c2)CCCN3C(=O)C2CCC2)cc1Cl	/	/	6.5	-1.9%	-0.7	/
Cc1ccc(OCCn2nc3ccccc3n2)c(C)c1	0.1	0.7%	63.6	1.2%	5.8	-3.5%
COc1ccc(CCNC(=O)CCS(=O)(=O)c2ccc3nc(C)sc3c2)cc1OC	-3.0	2.8%	14.1	1.3%	-0.7	?
CCc1nnc(NC(=O)CN2CC(C)OC(C)C2)s1 (configuration not stated)	3.6	1.0%	/	1.2%	/	-1.8%
CCCCn1c(SCc2nc(N)nc(Nc3ccccc3C)n2)nc2ccccc2c1=O	0.3	3.2%[15.4 µM]	3.0	-3.6%	1.4	-0.9%
O=C(CN1CCN(C(=O)C2COc3ccccc3O2)CC1)Nc1ccc(F)cc1 (configuration not stated)	-4.3	-2.8%	18.7	/	-0.4	4.4%
CCOC(=O)c1cccc(NC(=O)CCn2nc(C)c(S(=O)(=O)N3CCCCC3)c2C)c1	-1.7	-7.4%	-6.7&-2.5	-2.7%	1.5&1.1	15.9%
CCN(CC)S(=O)(=O)c1cccc(-c2nnc(SCC(N)=O)n2N)c1	6.1	18.1%	/	-1.3%	/	13.4%
CC(C)(C)NS(=O)(=O)c1ccc(NC(=O)NC2CCCCC2)cc1	-0.4	-2.6%	-13.7	-2.4%	2.5	-50.1%[inhibitor]
O=C(O)COc1ccc2c(c1)OCCO2	2.4	9.0%	-8.8	0.0%	-0.4	0.0%
CCOC(=O)c1ccc(NS(=O)(=O)c2cccc3nsnc23)cc1	-1.6	-11.1%	-15.2	-1.3%	-0.4	0.3%
CCN(c1ccccc1)S(=O)(=O)c1ccc(C(=O)NCC(c2cccs2)N(C)C)cc1 (configuration not stated)	-0.6	-5.4%	2.9	-1.2%	0.8	-2.9%[15.4 µM]
Cc1nnc(NC(=O)CSc2nnc(CNC(=O)c3ccccc3F)n2C(C)C)s1	/	3.0%	-8.1	/	0.2	28.1%[15.4 µM]
O=Cc1cccn1-c1ccccc1	0.3	5.1%	-11.6	-3.3%	0.4	20.9%
CC(C)c1ccc(/C=N/n2c(-c3ccccc3)n[nH]c2=S)cc1	2.5	-18.0%	-8.1	-2.2%	1.9	?
CCC(Oc1ccccc1)C(=O)Nc1ccc2oc(-c3ccc(OC)cc3)nc2c1 (configuration not stated)	/	/	-12.4	4.0%	2.0	/
OCC[C@@H]1C[C@@H](O)[C@H](O)[C@]2(CCc3ccccc3CO2)O1	0.6	7.4%	2.6	-1.2%	0.4	-9.6%
C[C@@H]1CN([C@H](C)CO)S(=O)(=O)c2ccc(Br)cc2O[C@@H]1CN(C)C(=O)Nc1ccc(C(F)(F)F)cc1	/	/	11.6	-0.2%	0.1	-14.7%
O=C1C=CC2=C3c4cc(O)c(O)cc4CC3(O)COC2=C1O (configuration not stated)	?	-8.8%	/	1.3%	/	/
COc1ccccc1NC(=O)c1ccc(S(=O)(=O)NCc2ccco2)cc1	2.5	-4.0%	4.7	/	0.5	-10.5%
COc1ccccc1OCCNS(=O)(=O)c1ccc2oc3ccccc3c2c1	12.8	?	7.9	/	0.2	-11.7%[15.4 µM]
CC(C)C(NC(=O)C1CCCCC1)C(=O)Nc1ccc2c(c1)OCCO2 (configuration not stated)	1.3	0.2%	-4.3	-0.6%	-1.0	20.0%
O=S(=O)(NCC1CC1)c1cccc(S(=O)(=O)N2CCCC2)c1	5.8	4.8%	-26.8	-5.1%	0.4	-3.8%

2 compounds from above, limited to TRPML1 inh and gsp ag.
compound	TRPML1 inh	gsp ag
CCCCn1c(SCc2nc(N)nc(Nc3ccccc3C)n2)nc2ccccc2c1=O	3.0	-0.9%
O=C(Nc1cccc(O)c1)c1cnn2cccnc12	-6.8	?
